Compound activity as filed in PubChem.
Menin-MLL FL inh = qHTS Assay for Inhibitors Targeting the Menin-MLL Interaction in MLL Related Leukemias: Competition With Fluorescein Labeled MLL-derived Peptide | 290,000 tested, under 10 active | Fluorescence polarization, fluorescein-MLL peptide displacement from menin | FP activity change, % at 61.4 µM; inconclusive = falling polarisation curve, or a change in total fluorescence; inactive = total fluorescence flat and polarisation flat or rising; no compound was filed as active; the % refers to the polarisation; negative = inhibition;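 also: % of control where 0% means no effect; inhibitors lower the polarisation; unlabelled MLL peptide was the positive control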
ClpP mod = qHTS Assay for Activators of ClpP | Potency, µM (top dose mostly 57.5 µM), for the others: top-dose activity change, negative = active | 340,000 tested, 1.9% active | AID 651965, 2013 | purified B. subtilis ClpP, FRET peptide cleavage, 20 min | ATP-dependent Clp protease proteolytic subunit (Bacillus subtilis (strain 168)), P80244; active = well fitted falling curve with a large enough effect; inconclusive = small, poorly fitted or top-dose-only effect; inactive = no such curve, though single readings can be large or run the other way; also: potency is read from the fitted curve at half-maximal effect; the source files actives as falling curves though it sought activators and does not explain the sign; nearly all actives have a fitted effect of over 65% in size; many hits overshoot -100%
Target sequence (P80244 whole entry, looked up): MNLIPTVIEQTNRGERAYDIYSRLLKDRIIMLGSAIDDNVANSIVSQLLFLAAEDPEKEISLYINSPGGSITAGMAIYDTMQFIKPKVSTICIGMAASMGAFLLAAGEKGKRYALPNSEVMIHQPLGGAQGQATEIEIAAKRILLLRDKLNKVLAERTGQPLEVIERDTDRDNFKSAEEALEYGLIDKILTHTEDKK
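Buffer: 100 mM Tris/HCl pH8, 100 mM KCl, 0.05% low protease BSA, 2.5% glycerol, 0.01% Tween-20. ClpP 10 microg/mL final; 20 min RT; delta FRET normalized to ADEP and DMSO controls.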
* hit, by the source's call; ? = inconclusive; . = not tested or not shown; & = joins results of further samples; [ ] = dose if it differs, or a comment. An excerpt; the hit share may differ from the screen's.

SMILES	Menin-MLL FL inh	ClpP mod
COC(=O)[C@@]1(Cc2ccc(OC)cc2)[C@H]2c3cc(C(=O)N4CCCC4)n(Cc4nc5ccccc5[nH]4)c3C[C@H]2CN1C(=O)c1ccccc1	21.6	.
O=c1c2ccccc2nc2c3ccccc3c(NCCN3CCOCC3)nn12	-0.5	.
Cc1ccc(C(=O)OC[C@H]2O[C@H](Cl)C[C@@H]2OC(=O)c2ccc(C)cc2)cc1	-2.4	.
CC#CCC1(C(=O)OC)C(=O)NC[C@H]1c1ccccc1 (stereo not given in full)	4.7&-0.1&-0.9	.
CC(NC(=O)c1cc(Br)ccc1Br)c1ccccc1 (stereo not given)	0.4	.
COC(=O)CCCC1=CC2=C(c3ccccc3)C(=O)C(C)(OC(=O)C3CCCC3)C(=O)C2=CO1 (stereo not given)	1.8	.
Cc1ccnc(SCCn2c(N3CCCCC3)nc3c2c(=O)[nH]c(=O)n3C)n1	-0.6	.
COC(=O)[C@@]1(Cc2ccccc2)[C@H]2c3cc(C(=O)N4CCCC4)n(Cc4ccccc4)c3C[C@H]2CN1C(=O)c1ccccc1	-0.7	.
CCCCCCCCCC(=O)NO	1.0	.
COc1ccc2cc(C(c3nnnn3C(C)(C)C)N3CCc4ccccc4C3)c(=O)[nH]c2c1 (stereo not given)	3.1	.
Cc1c(C)c2c(c(C)c1O)CCC(C)(COc1ccc(Cc3sc(=O)[nH]c3O)cc1)O2 (stereo not given)	-0.4	.
CC[C@@H](C)CN1C(=O)N[C@@H](c2ccccc2)C(C(=O)OC)=C1C	-1.0[11.7 µM]	.
O=C(O)C1CC(CCCP(=O)(O)O)CCN1 (stereo not given)	4.1	.
CN(Cc1ccco1)c1ncnc2ccc(-c3ccoc3)cc12	4.0	.
Cc1nc2cnc(N3CCN(C)CC3)nc2n(Cc2cccs2)c1=O	-0.3	.
N[C@H](C(=O)N[C@@H]1C(=O)N2C(C(=O)O)=C(Cl)CS[C@@H]12)c1ccccc1	6.0&-4.6[24.8 µM]	.
CSCC[C@H](NC(=O)[C@H](CC(C)C)NC(=O)[C@H](CO)NC(=O)[C@H](CCC(=O)O)NC(=O)[C@H](CC(C)C)NC(=O)[C@H](Cc1ccc(O)cc1)NC(=O)[C@H](CCCCN)NC(=O)[C@H](CCCCN)NC(=O)[C@H](C)NC(=O)[C@H](CO)NC(=O)[C@H](CC(C)C)NC(=O)[C@H](CCC(N)=O)NC(=O)CNC(=O)[C@H](CC(C)C)NC(=O)[C@H](CC(C)C)NC(=O)[C@H](CCCCN)NC(=O)[C@H](CO)NC(=O)[C@H](Cc1ccccc1)NC(=O)[C@H](CC(=O)O)NC(=O)[C@H](CO)NC(=O)[C@@H](NC(=O)[C@H](Cc1ccccc1)NC(=O)[C@@H](NC(=O)CNC(=O)[C@H](CC(=O)O)NC(=O)[C@H](C)NC(=O)[C@@H](N)Cc1cnc[nH]1)C(C)C)[C@@H](C)O)C(N)=O	3.6	.
C[C@H]1Cc2c(-c3ccccc3)nc3c(c2CO1)CN(S(=O)(=O)c1ccc(C#N)cc1)CC3	1.0[11.7 µM]	.
N#Cc1cccc(NC(=O)N2CC3(CCN(C(=O)c4cnccn4)CC3)C2)c1	0.9	.
COC(=O)[C@@]1(Cc2ccc(OC)cc2)[C@H]2c3cc(C(=O)N4CCCC4)n(CCc4ccc(O)c(O)c4)c3C[C@H]2CN1C(=O)c1ccccc1	-10.3	.
C[C@@H]1CN(c2c(F)c(N)c3c(=O)c(C(=O)O)cn(C4CC4)c3c2F)C[C@H](C)N1	-3.2&-7.6	.
O=C1CC(c2ccccc2Cl)c2c(sc3c(=O)[nH]c(CCl)nc23)N1 (stereo not given)	0.5	.
COc1ccc([C@]23Cc4c(ccc5ccccc45)C(O2)C2=C(CCCC2=O)O3)cc1	3.5[11.7 µM]	.
O=C(c1ccco1)N1CCC2(CC1)CCN(c1cccc(-c3ccccc3)c1)CC2	4.1	.
CC1(C)CC[C@]2(C(=O)O)CC[C@]3(C)C(=CCC4[C@@]5(C)CC[C@H](O)C(C)(C)C5[C@H](O)C[C@]43C)C2C1 (stereo not given in full)	25.1	.
N[C@H](Cc1ccc(Cl)cc1)C(=O)O	3.0	.
COc1ccc(-c2nnc3n2N=C(c2cccc(Br)c2)CS3)cc1OC	3.4	.
COc1cc2c(c(OC)c1OC)-c1ccc(OC)c(=O)cc1[C@@H](NC=O)CC2	0.3	.
COc1ccc(-c2cnnc(CCCn3ccnc3-c3ccccc3)n2)cc1	-0.3[11.7 µM]	.
COc1ccc(-c2nc3cnc(OCc4ccccc4)nc3n(CCC#N)c2=O)cc1	-9.8	.
NCCC(=O)N[C@H](Cc1cnc[nH]1)C(=O)O	1.6	.
CCC1=C2CC[C@H]3C(=O)N(C)C(=O)[C@H]3[C@H]2[C@@]2(Cc3ccccc3)C(=NCCc3c[nH]c4ccccc34)OC(=O)N2C1=O	-0.9	.
CO[C@H]1COC(=O)[C@@H](C)COC(=O)[C@@H](Cc2ccccc2)NC(=O)C/C=C\[C@H]1C	-0.5[11.7 µM]	.
COc1ccc(C2=Nn3c(nnc3-c3ccc(OC)cc3OC)SC2)c(OC)c1	-6.2	.
CC(=O)OC[C@H]1O[C@@H](O/N=C(\C)CCC(=O)OC[C@@H]2O[C@H](C#Cc3ccccc3)C=C[C@@H]2Oc2ccc(C)cc2)[C@H](OC(C)=O)[C@@H](OC(C)=O)[C@H]1OC(C)=O	0.5[11.7 µM]	.
CC(C)SC(=N)N	17.7	.
C[C@@H]1NC(=O)C/C=C\[C@@H](C)[C@@H]2C=C[C@H](O)[C@@H](COC(=O)[C@H](C)NC(=O)C/C=C\[C@@H](C)[C@@H]3C=C[C@H](O)[C@@H](COC1=O)O3)O2	0.1[11.7 µM]	.
O=C(/C=C/c1ccc(O)cc1)c1ccccc1O	?	.
COC(=O)[C@]12CCCCC=C1N(CCc1ccc(OC)c(OC)c1)C(=O)[C@H](CC(=O)NCc1cccs1)C2	.	3.6%
Cc1cccc(S(=O)(=O)N[C@@H]2CC[C@@H](CCNS(=O)(=O)c3ccccc3F)O[C@@H]2CO)c1	.	1.2%

The list goes on (seven carried over from the part before).
SMILES	Menin-MLL FL inh	ClpP mod
COc1ccc(C2=Nn3c(nnc3-c3ccc(OC)cc3OC)SC2)c(OC)c1	-6.2	.
CC(=O)OC[C@H]1O[C@@H](O/N=C(\C)CCC(=O)OC[C@@H]2O[C@H](C#Cc3ccccc3)C=C[C@@H]2Oc2ccc(C)cc2)[C@H](OC(C)=O)[C@@H](OC(C)=O)[C@H]1OC(C)=O	0.5[11.7 µM]	.
CC(C)SC(=N)N	17.7	.
C[C@@H]1NC(=O)C/C=C\[C@@H](C)[C@@H]2C=C[C@H](O)[C@@H](COC(=O)[C@H](C)NC(=O)C/C=C\[C@@H](C)[C@@H]3C=C[C@H](O)[C@@H](COC1=O)O3)O2	0.1[11.7 µM]	.
O=C(/C=C/c1ccc(O)cc1)c1ccccc1O	?	.
COC(=O)[C@]12CCCCC=C1N(CCc1ccc(OC)c(OC)c1)C(=O)[C@H](CC(=O)NCc1cccs1)C2	.	3.6%
Cc1cccc(S(=O)(=O)N[C@@H]2CC[C@@H](CCNS(=O)(=O)c3ccccc3F)O[C@@H]2CO)c1	.	1.2%
COC(=O)C[C@H]1CC[C@@H]2[C@H](COC[C@H](O)CN2S(=O)(=O)c2ccccc2OC)O1	.	0.7%
CCOC(=O)[C@]12CCCC=C1N(Cc1ccccc1)C(=O)[C@H](CC(=O)NCC13CC4CC(CC(C4)C1)C3)C2	.	-3.5%
O=C(C[C@H]1CC[C@@H]2[C@H](COC[C@H](O)CN2C(=O)c2cnccn2)O1)NCc1ccc(Cl)cc1	.	-1.8%
CCCCCNC(=O)C(c1ccnc2ccccc12)n1c(=O)c(-c2ccccc2)nc2ccccc21 (stereo not given)	.	-8.4%
Cc1ccc(S(=O)(=O)N2[C@H](CC(=O)c3ccccc3)OC[C@@H]2C(C)C)cc1	.	-1.0%
CCC(=O)N[C@@H]1CC[C@@H](CCNC(=O)Nc2ccc(F)cc2)O[C@@H]1CO	.	-0.9%
CC(C)(C)NC(=O)C(c1ccccc1F)n1c(=O)c(-c2ccccc2)nc2ccccc21 (stereo not given)	.	-7.9%
O=C(Nc1ccc2c(c1)OCCO2)C(c1ccccc1)n1c(=O)c(-c2cc3ccccc3[nH]2)nc2ccccc21 (stereo not given)	.	-4.0%
Cc1ccccc1CN1C(=O)CN(S(C)(=O)=O)CC1(C)C(=O)NC(C)C (stereo not given)	.	1.3%
COc1ccc(CCc2nc3ccccc3n2C(CCc2ccccc2)c2nc3ccccc3[nH]2)cc1 (stereo not given)	.	-3.3%
CO[C@@H]1CN(C)C(=O)c2ccc(NC(=O)C3CCC3)cc2OC[C@H](C)N(CC2CCCCC2)C[C@H]1C	.	-1.7%
CC(C)(C)OC(=O)N1CCc2onc(-c3ccc(-n4cc(C5=CCCCC5)nn4)cc3)c2C1=O	.	0.0%
CNC(=O)C[C@@H]1CC[C@@H]2[C@H](COC[C@H](O)CN2S(=O)(=O)c2ccccc2Cl)O1	.	-0.9%
CSCCC(C(=O)Nc1c(C)cccc1C)n1c(-c2ccc(-c3ccccc3)cc2)nc2ccccc21 (stereo not given)	.	4.5%
CCc1ccc(N2C=C(C(=O)OC)C(c3ccc(OC)cc3)C(C#N)=C2N)cc1 (stereo not given)	.	-5.5%
Cc1cccc(C)c1NC(=O)C(c1ccccc1F)n1c(=O)c(-c2ccccc2)nc2ccccc21 (stereo not given)	.	?
CC(C)(C)N1C(=O)c2ccccc2NC(=O)C1C(=O)NCc1ccco1 (stereo not given)	.	-5.0%
O=C(NCC(F)(F)F)C1C(=O)Nc2ccccc2C(=O)N1C1CCCC1 (stereo not given)	.	-1.2%
Cc1cccc(C)c1NC(=O)C(c1ccccc1)n1c(=O)c(-c2ccccc2)nc2ccccc21 (stereo not given)	.	?
CCc1c(-c2ccccc2F)ncn1Cc1cccc(-c2ccccc2)c1	.	-9.4%
CCOC(=O)[C@]12CCCC=C1N(Cc1ccccc1)C(=O)[C@H](CC(=O)NCCCOC)C2	.	1.7%
COc1ccc2cc(C3CC=C(CO)CN3S(=O)(=O)c3ccccc3[N+](=O)[O-])n(C(=O)OC(C)(C)C)c2c1 (stereo not given)	.	-0.6%
COC(=O)[C@@]12C[C@@H](CC(=O)N3CCCCC3)C(=O)N(Cc3ccc4c(c3)OCO4)C1=CCC(C)(C)C2	.	0.1%
N#Cc1cccc(C(=O)C(=O)N2CCC(c3ccccc3)CC2)c1	.	0.3%
COC(=O)[C@@]12C[C@@H](CC(=O)NCCc3ccccc3OC)C(=O)N(Cc3ccco3)C1=CCC(C)(C)C2	.	-0.2%
CCCCNC(=O)c1nc(-c2cnccn2)oc1-c1ccc(Cl)cc1	.	4.0%
COc1ccc(CN2C(=O)CN(S(C)(=O)=O)CC2(C)C(=O)Nc2c(C)cccc2C)cc1OC (stereo not given)	.	-5.0%
CCCCCCCCN1C(=O)[C@H](CC(=O)NCC2CCCCC2)C[C@@]2(C(=O)OC)CC(C)(C)CC=C12	.	-7.0%
Cc1cnc(-c2nc3ccccc3n2C(C(=O)Nc2c(C)cccc2C)C2CC2)cn1 (stereo not given)	.	-27.9%
CO[C@H]1CN(C)C(=O)c2ccc(NC(=O)C3CCC3)cc2OC[C@H](C)N(Cc2ccc(F)cc2)C[C@@H]1C	.	-0.4%
Cc1ccc(CN2C(=O)CSCC2(C)C(=O)Nc2c(C)cccc2C)cc1 (stereo not given)	.	0.0%
Nc1sc2c(c1C(=O)NCCc1ccccc1)CCCC2	.	-3.4%
COC(=O)C[C@H]1CC[C@H](NC(=O)c2ccc(F)cc2)[C@@H](CO)O1	.	0.0%
CCOC(=O)[C@]12CCCC=C1N(CCC1=CCCCC1)C(=O)[C@H](CC(=O)N1CCCCC1)C2	.	0.0%
CCCCCCCCN1C(=O)[C@H](CC(=O)N2CCC(c3ccccc3)CC2)C[C@@]2(C(=O)OC)CC(C)(C)CC=C12	.	-1.3%
COc1ccc(C2=Nc3ccccc3N(C(=O)Cc3cc(OC)cc(OC)c3)C2C(=O)NC(C)C)cc1 (stereo not given)	.	-25.8%
COc1ccc(C(C(=O)NC2CCCCC2)n2c(=O)c(-c3cc4ccccc4[nH]3)nc3ccccc32)cc1 (stereo not given)	.	11.0%
CC(C)(C)NC(=O)C(c1ccccc1F)n1c(=O)c(-c2ccco2)nc2ccccc21 (stereo not given)	.	4.8%
Cc1ccc(S(=O)(=O)C[C@@H]2OC[C@H](C(C)C)N2S(=O)(=O)c2ccc(C)cc2)cc1	.	-1.5%
Cc1ccccc1S(=O)(=O)N1C(c2ccc(Cl)cc2)CC=C(C(=O)O)C1c1cccc(Cl)c1 (stereo not given)	.	-0.2%
COC(=O)C(C(=O)OC)c1ccccc1NS(=O)(=O)c1ccc(C)cc1	.	-0.5%
Cc1cc2c(cc1C)-n1nnnc1C(N1CCN(CC(=O)N3CCCC3)CC1)C(=O)N2 (stereo not given)	.	0.2%
O=C(NCC[C@H]1CC[C@H](NS(=O)(=O)c2ccc(F)cc2)[C@@H](CO)O1)c1ccc2c(c1)OCO2	.	-9.5%
Cc1cccc(S(=O)(=O)N2C[C@@H](O)COC[C@@H]3O[C@H](CC(=O)NCCCN4CCOCC4)CC[C@H]32)c1	.	-1.4%
Cn1cnc(S(=O)(=O)N2C[C@@H](O)COC[C@@H]3O[C@H](CC(=O)NC4CCC4)CC[C@H]32)c1	.	2.3%
